NPYLR7 agonist: mosquito NPYLR7 agonism; HEK293T NPYLR7/Galpha15, GCaMP6s calcium fluorescence; AID 1259423; activation, % at 10 µM; 270,000 compounds, 0.15% hits; in the data active means activation above about 40%;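 further: 0% = vehicle and 100% = reference agonist at the receptor; some compounds past the cut are filed as inactive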
NPYLR7 agonist max-min: also measured in NPYLR7 agonist; calls as there; activation, %; measured here: Max-Min RFU normalised activation; some inactives read as strong as hits;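 span of the calcium signal over five minutes; 0% = vehicle and 100% = native peptide agonist; compound fluorescence can raise it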
Starred values were filed as active, the others as inactive; & = joins results of further samples. Only part of the results is shown (hit frequency here may not be typical).

molecule	NPYLR7 agonist	NPYLR7 agonist max-min
Cc1ccccc1-c1cc(O)c2c(c1)CN(C(=O)Cc1ccccn1)CCO2	5	-4
CCCC(=O)N1CCC1(C)C(=O)Nc1ccccc1Br (centres undefined)	4	3
CCOC(=O)CN1CCN(c2nc3c(c(=O)[nH]c(=O)n3C)n2CCC(C)C)CC1	-6	-8
COc1ccccc1N1CCN(C(=O)CSc2nnc(N)s2)CC1	1	1
O=C1C(C(c2cccc(Br)c2)N2CCC(O)CC2)Sc2nc(-c3ccco3)nn21 (centres undefined)	-2	-2
CN(C)CCCN(CCC#N)C(=O)c1cc2ccc(Cl)cc2[nH]1	11	8
COCCNC(=O)c1cc(N2CCC3(CCCN(C)C3=O)C2)ccn1 (centres undefined)	5	3
CCc1cc2c(ncn3cnnc23)s1	-2&3	3&0
CC(Sc1ccccn1)C(=O)Nc1ccccc1 (centres undefined)	2	-1
COc1ccccc1CCNS(=O)(=O)c1ccccc1	-8	-9
CCc1nc(C(C)NC(=O)NCCc2cccc(C(N)=O)c2)cs1 (centres undefined)	19	11
COc1ccccc1NC(=O)C1CCCN(c2ccc(-c3ccccc3OC)nn2)C1 (centres undefined)	-12	-15
Cc1cn(C2OC(CC(=O)Oc3ccccc3)C3OC(C)(C)OC32)c(=O)[nH]c1=O (centres undefined)	2	-2
CCc1[nH]nc2c1C(c1ccccc1OCCCn1ccnc1)CC(=O)N2 (centres undefined)	14	0
CC(C)COC(=NC1CCCc2ccccc21)NC(=O)c1ccc2c(c1)OCO2 (centres undefined)	17	17
Nc1cc(C(=O)NC2CCCC2)c2cn[nH]c2c1	22	11
O=C(CCC(=O)N1CCc2ccccc2C1)NCC1CCCCC1	-9	-19
CCOc1ccc(/C=C/C(=O)Nc2nc3ccccc3s2)cc1	-2	-8
Cc1[nH]c2c(C)ccc(C)c2c1CC(=O)NCCN(C)S(C)(=O)=O	23	11
CC1=C(C(=O)N2CCCCC2)C2(CCC(C)CC2)OC1=O (centres undefined)	6	5
Cc1cccc(CC(=O)Nn2cnc3c(cnn3-c3ccc(C)c(C)c3)c2=O)c1	3	2
COc1ccc2c(c1)C(C(=O)N1CCN(c3ccc(C(=O)O)cc3)CC1)=CC(C)(C)O2	4	14
CC(C)c1cncnc1-c1cccc2ccnn12	9	3
Cc1ccc(S(=O)(=O)n2c([N+](=O)[O-])cnc2C)cc1C	14	8
O=C(Cn1nc2ccc(Sc3ccccc3)nn2c1=O)N1CCN(c2ccc(F)cc2)CC1	4	1
O=C(CC(F)(F)F)NCCS(=O)Cc1ccccc1 (centres undefined)	3	1
Cc1cc2c(cc1C(=O)N1CCC3(CN(C)C(=O)O3)C1)OCCO2 (centres undefined)	4	2
CC1CN(S(=O)(=O)c2cc3c(cc2F)NC(=O)CC3)CC(C)(C)O1 (centres undefined)	5	5
NC(=O)c1oc2ccccc2c1NC(=O)c1ccc(-c2nc3ccccc3s2)s1	-4	-7
FC(F)(F)c1ccnn1-c1nc(-c2cc3ccccc3o2)cs1	3	0

Single entries from above:
Under NPYLR7 agonist, `Cc1cn(C2OC(CC(=O)Oc3ccccc3)C3OC(C)(C)OC32)c(=O)[nH]c1=O` (centres undefined) shows 2
Under NPYLR7 agonist, `CC(C)COC(=NC1CCCc2ccccc21)NC(=O)c1ccc2c(c1)OCO2` (centres undefined) shows 17
Under NPYLR7 agonist, `COCCNC(=O)c1cc(N2CCC3(CCCN(C)C3=O)C2)ccn1` (centres undefined) shows 5
Under NPYLR7 agonist, `Cc1[nH]c2c(C)ccc(C)c2c1CC(=O)NCCN(C)S(C)(=O)=O` shows 23
Under NPYLR7 agonist, `CCOc1ccc(/C=C/C(=O)Nc2nc3ccccc3s2)cc1` shows -2
Under NPYLR7 agonist max-min, `CC1CN(S(=O)(=O)c2cc3c(cc2F)NC(=O)CC3)CC(C)(C)O1` (centres undefined) shows 5
Under NPYLR7 agonist max-min, `FC(F)(F)c1ccnn1-c1nc(-c2cc3ccccc3o2)cs1` shows 0

(continued)
molecule	NPYLR7 agonist	NPYLR7 agonist max-min
Cc1ccccc1Oc1cc(-c2ccccc2)nc(SCc2cccc([N+](=O)[O-])c2)n1	5	21
COC(=O)c1ccc(NC(=O)c2cc(-c3ccccc3C)nc3ccccc23)cc1	3	-4
O=C1CSC(=O)N1CC(=O)N1CCc2c([nH]c3ccccc23)C1C1CCCCC1 (centres undefined)	9	10
CC(C)CCNC(=O)c1cn(CC(C)C)cc(C(=O)N2CCCCC2c2cccnc2)c1=O (centres undefined)	1	-3
c1ccc2c(c1)COC(CN1CCN(CC3OCc4ccccc4CO3)CC1)OC2	1	0
Cc1ccc(C)c(SCc2nc3sc(C(=O)N(C)C)c(C)c3c(=O)[nH]2)c1	8	8
COc1ccccc1C(=O)N1CCN(c2ccc(-n3nc(C)cc3C)nn2)CC1	-3	-10
C=CCC(=O)N(CCCC)Cc1ccccc1F	0	0
O=S(=O)(c1cccc(Cl)c1)N(Cc1ccccc1F)C1CC1	-5	-8
COc1ccc(NCCn2c(C)cn3c4c(=O)n(C)c(=O)n(C)c4nc23)c(OC)c1	4	-2
O=C(NC1CC1)C(Sc1ncccc1Cl)c1ccccc1 (centres undefined)	-3	-4
COCc1cc(C)nc(N/N=C\c2ccc(OCc3cccc4ccccc34)c(OC)c2)c1C#N	-2	7
O=C(CN1C(=O)SC(=Cc2ccc(N3CCCCCC3)o2)C1=O)N1CCCCCC1	45*	59*
COc1ccc2oc(C(=O)Nc3cc(NC(C)=O)ccc3OC)c(C)c2c1	-7	-7
CCOC(=O)C1C(=O)C=C(c2ccc(C)cc2)CC1c1cc(OC)ccc1OC (centres undefined)	8	12
CC(=O)OCc1c(C)cc(C)c(CNCc2cnc(C)cn2)c1C	0	-5
COc1cccc(CN(Cc2ccc3c(c2)OCO3)CC(O)COCc2ccco2)c1OC (centres undefined)	0	13
O=[N+]([O-])c1cccc2nc(C=Cc3cc(Br)cs3)ccc12	6	14
CC(C)N1CCCc2c(NC(=O)c3ccc(F)cc3)cccc21	1&10	-1&4
O=C(NC(C(=O)N1CCCCC1)C1CCN(C(=O)c2ccco2)CC1)C1CCCC1 (centres undefined)	-1	3
CCCOc1ccc(C2NC(=O)NC(C)=C2C(=O)OC2CCC(C)CC2)cc1 (centres undefined)	17	9
CCc1cnc(C)nc1NCCSc1nnc(C)n1CC	13	3
CCOc1ccc(NC(=O)CSc2nnc(CNC(=O)c3cccc([N+](=O)[O-])c3C)n2-c2cccc(C)c2)cc1	-5	2
Cc1ccc(-n2c(CNC(=O)NC(C)(C)C)nnc2SCc2ccccc2)cc1	-7	1
O=C(CCC1CCN(C(=O)c2cc3ccccc3o2)CC1)NCC1CCCO1 (centres undefined)	11	5
O=C(O)c1ccc(CSc2nnc(-c3ccco3)n2-c2ccc(F)cc2)cc1	-4	-10
CC(C(=O)Nc1ccc2ccccc2c1)N1CCCC(C(=O)N(C)C)C1 (centres undefined)	-22	-20
COCCNC(=O)c1cc(C(C)C)n(-c2nc3ccccc3s2)n1	1	-2
COc1ccc2ccc(OCc3nc(C(=O)N(C)Cc4cnn(C)c4)co3)cc2c1	3	1
CCN(C(=O)C1CC1c1ccc(F)cc1)c1ncc(C(=O)OC)s1 (centres undefined)	-1	14
CCCCCCOC(=O)C1=C(C)NC(=O)NC1c1cc2c(cc1Br)OCO2 (centres undefined)	-8	-15
Cc1cc(C)cc(-c2nnc(SCc3cc4c(cc3Br)OCO4)o2)c1	-2	7
Cc1cc2c(cc(C(=O)O)n2Cc2cccc([N+](=O)[O-])c2)s1	12	12
CCCCCCC(=O)N1CCN(c2nc(-c3cccc(C(F)(F)F)c3)nc(C)c2Cc2ccccc2)CC1	16	16
Cc1c(NC(=O)C=Cc2cc(Cl)c3c(c2)OCO3)c(=O)n(-c2ccccc2)n1C	4	4
CCOC1=NN(c2ccc([N+](=O)[O-])cc2)C(=O)/C1=C\c1ccc(C)o1	2	9
COc1ccc(-c2[nH]ncc2CN2CCN(C)C(C(=O)O)C2)cc1OC (centres undefined)	1	-1
CCCC(O)CN(CCCOC)Cc1ccc(OC)c(OC)c1 (centres undefined)	28	25
Cc1nn(C)cc1-c1ccnc(NCc2nc(C)c3c(n2)CCCC3)n1	-6	-11
Cc1ccsc1-c1nc(CN(C)Cc2nc(C(C)C)no2)c(C)o1	-4	-10
COC(=O)C1CCCCN1Cc1nc(-c2ccccc2C)oc1C (centres undefined)	-3	-4
CCOC(=O)c1c(NC(=O)C2CCCC2)c(-c2cccc(F)c2)cn1Cc1ccccc1	3	1
Cc1ccc2nc(Cc3cccc(NC(=O)c4ccc(Cl)c(Cl)c4)c3)oc2c1	16	21
Cc1nc(C)c(C(C)N(C)C(=O)C(=O)Nc2ccc(C#N)cc2)s1 (centres undefined)	-11	-9
NS(=O)(=O)c1ccc(CCNC(=O)Cc2cc(-c3cc4ccccc4o3)on2)cc1	0	3
Cc1cc(CN(C)c2ccc(C(=O)NCCC3CCCCN3C)cn2)on1 (centres undefined)	9	0
COc1ccc(Cl)cc1CC1(C)C(=O)Nc2c(Cl)ccc(Cl)c21 (centres undefined)	-3	-4
CCN(C(=O)c1cccc2ccnn12)[C@H]1COC[C@@H]1O	6	5
COC=C1CC(O)N=C(Nc2nc(C)c3ccccc3n2)N1 (centres undefined)	5	2
CCC(NC(=O)Cn1cc(C)c(=O)[nH]c1=O)c1nc(C)c(C)s1 (centres undefined)	0	1
Cc1ccsc1C(=O)N1CCC1(C)C(=O)NC1CCCCCC1 (centres undefined)	6	2
Cc1cc(C)c(S(=O)(=O)N(CC(=O)N2CCc3sccc3C2c2ccc(Cl)cc2Cl)C2CCCCC2)c(C)c1 (centres undefined)	28	28
CC(NC(=O)C(C)S(=O)(=O)Cc1ccc(Cl)s1)c1ccccc1 (centres undefined)	0	0
O=C1NCCN(C/C=C/c2ccccc2)C1CC(=O)N1CCCCO1 (centres undefined)	3	0
CC(=O)N(CN1C(=O)c2ccc(Br)cc2C1=O)c1ccc(Cl)cc1	4	6
CC(C)OC(=O)c1c(NC(=O)c2cnn3c(C(F)(F)F)cc(-c4ccccc4)nc23)sc2c1CCCC2	-8	-13
CCOc1ccc(-n2nnnc2CNC(=O)NC(C)(C)C)cc1	24	14
Cc1ccc(C=CC(=O)O)o1	15	9
COc1cc(Cl)ccc1NC(=O)Cn1nc([N+](=O)[O-])c(Br)c1C	2	0
CC=CCn1c(=O)c2c(nc3n(-c4ccccc4O)c(C)c(C)n23)n(C)c1=O	-5	-6

Looked up one by one from the list above:
molecule	NPYLR7 agonist	NPYLR7 agonist max-min
Cc1nn(C)cc1-c1ccnc(NCc2nc(C)c3c(n2)CCCC3)n1	-6	-11
CCOc1ccc(-n2nnnc2CNC(=O)NC(C)(C)C)cc1	24	14
O=C1NCCN(C/C=C/c2ccccc2)C1CC(=O)N1CCCCO1 (centres undefined)	3	0

(more compounds)
molecule	NPYLR7 agonist	NPYLR7 agonist max-min
CCCCCCCCC1=NN2CCS(=O)(=O)N=C2S1	0	8
CCOc1nn(CC)cc1C(=O)Nc1ccccc1	-1	0
COc1cccc2cc(C(N)=O)c(=Nc3sc4c(c3C(N)=O)CCCC4)oc12	4	-1
O[C@@H]1C[C@H]2CN(c3nnnn3-c3ccc(Oc4ccccc4)cc3)C[C@H]2C[C@@H]1O	-1	-3
Clc1nn2cnnc2c2ccccc12	1	11
Cc1cccc(-n2nc(C)nc2C2CC(=O)OC23CCCCC3)c1 (centres undefined)	15	11
O=c1cc(CN2CCCC(O)(CO)C2)[nH]c2c(F)cccc12 (centres undefined)	-3	-11
CN1CCN(N=Cc2c3ccccc3c(Cl)c3ccccc23)CC1	9	7
COc1cccc(CSc2nc(-c3cccs3)cc(-c3ccccc3)c2C#N)c1	-2	-5
CCOc1ccc(NC(=O)C(=O)NCC(c2cccn2C)N2CCCC2)cc1 (centres undefined)	-5	-7
COCc1cc(N2CCCC(C(=O)c3ccc(Cl)cc3C)C2)ncn1 (centres undefined)	-1	7
O=C1CN(S(=O)(=O)c2ccc3ccccc3c2)CC2c3cccc(F)c3CCN12 (centres undefined)	2	1
Cn1nnnc1SCC(O)c1ccc(Br)cc1 (centres undefined)	17	6
Cc1ccc2[nH]c(O)c(N=NC(=O)c3ccccc3)c2c1Br	-4	-11
Cc1nc2scc(C)n2c(=O)c1NC(=O)c1cccs1	9	-1
COc1cccc(F)c1C(C)NC(=O)N1CCC(n2ccnc2)CC1 (centres undefined)	1	-2
COc1cccc([C@@H]2CCN(Cc3ccc(S(C)(=O)=O)cc3)C[C@H]2O)c1	2	2
CC1=Cc2nc3ccccc3n2C2(C(F)(F)F)OC(c3cccnc3)=NN12 (centres undefined)	-7	-9
COc1cccc2cc(C(=O)N(CCn3cccn3)c3nc4c(F)cccc4s3)oc12	-18	-24
CCOC(=O)c1c(NC(=O)c2cccs2)sc(C(=O)Nc2cccc(Cl)c2)c1C	1	2
Cc1ccc2cc(CN(CCO)CCO)c(=O)[nH]c2c1	0	-6
CCn1c(=O)c2c(nc3n2CCCN3c2ccc(Cl)cc2)n(C)c1=O	-1	-4
CCc1nc2c(OCc3ccccc3OC)cccn2c1N(C)C(=O)C(C)C	-18	-7
COc1ccc(-c2cc(C(=O)N3CCCC3)n3nc(C(C)(C)C)cc3n2)cc1	-2&12	4&8
Cc1nc(N)ncc1C(=O)N(C)CCN(C)C1CCCC1	5	2
CC(C)c1cc(=O)n2c(n1)SCC2CC(=O)Nc1cccc(Cl)c1Cl (centres undefined)	0	-1
Cc1ccc(-n2nnc(-c3nc(C)c(C(=O)N4CCN(Cc5ccccc5)CC4)s3)c2C)cc1	18	19
COCC(=O)Nc1cccc(-c2ccc3nnc(C)n3n2)c1	-12	-6

Record cards, as listed above:
`COc1cccc(F)c1C(C)NC(=O)N1CCC(n2ccnc2)CC1` (centres undefined) in the list: NPYLR7 agonist = 1; NPYLR7 agonist max-min = -2
`COCc1cc(N2CCCC(C(=O)c3ccc(Cl)cc3C)C2)ncn1` (centres undefined) in the list: NPYLR7 agonist = -1; NPYLR7 agonist max-min = 7

Compound activity (PubChem)
